eIF4H inh = human eIF4H binding inhibitors, primary screen, translation initiation inhibitor project, biochemical, uHTS, fluorescence polarization | Eukaryotic translation initiation factor 4H (Homo sapiens), Q15056 | eIF4H fluorescence polarization binding assay | inhibition, % at 35 µM | 290,000 compounds, 0.94% hits;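 active means 50% or more with normal probe brightness, or confirmed in later tests; inconclusive means above 50% with abnormal brightness, or retests that disagree; inactive means below 50% or failed in later tests; about a fifth of its hits are not listed in these tables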;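 further: calls also rest on retests at 20 µM and on dose response follow-up; 0% = protein and probe with vehicle and 100% = probe without protein; strong numbers were not always called active; many hits fall short of the cut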
Env fusion inh = inhibitors of HIV-1 Env-driven cell-cell fusion, primary screen, HeLa-JRFL effector, CEM21 target cells, luciferase; inhibition, % at 12.3 µM; 360,000 compounds, 1.1% hits; AID 651610, 2012;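 active means mean replicate inhibition score of at least 50 and every replicate individually at or above 50; inconclusive means only one of the two criteria met; inactive means mean below 50 and not all replicates reaching 50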;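 further: 0% = plate neutral controls and 100% = maraviroc near 300 nM; one replicate is shown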
Rce1 inhib = yeast Rce1p protease inhibitors, primary screen, biochemical, fluorescence, cell-free homogeneous; 290,000 compounds, 0.27% hits; calls only; yeast membranes, quenched prenylated peptide cleavage fluorescence; CAAX prenyl protease 2 (Saccharomyces cerevisiae (strain ATCC 204508 / S288c)), Q03530;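 active means fall in fluorescence gain of 50% or more versus controls, with final raw signal at or below 3038400; inconclusive means same 50% fall but final raw signal above 3038400; inactive means fall in fluorescence gain under 50%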;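 further: plate controls were neutral control wells for no effect and wells lacking membranes for full effect; tested at 10 µM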
Target sequence (Q03530 whole entry, looked up): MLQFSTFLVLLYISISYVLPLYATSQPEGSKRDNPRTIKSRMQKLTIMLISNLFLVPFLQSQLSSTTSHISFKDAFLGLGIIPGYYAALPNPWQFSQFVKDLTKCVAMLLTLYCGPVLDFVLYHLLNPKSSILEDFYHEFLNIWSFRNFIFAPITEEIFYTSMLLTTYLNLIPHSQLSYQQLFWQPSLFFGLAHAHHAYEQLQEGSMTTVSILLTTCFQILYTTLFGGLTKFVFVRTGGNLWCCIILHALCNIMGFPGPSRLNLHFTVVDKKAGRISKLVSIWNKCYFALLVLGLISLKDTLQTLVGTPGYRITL
MT1-MMP act inh = blockers of MT1-MMP proenzyme processing, primary screen, HT1080 RFP-PRO-GFP cells, GFP/RFP fluorescence | GFP/RFP ratio fluorescence, overnight; percent of plate control window, DMSO zero | GFP/RFP ratio change, % at 20 µM | 360,000 compounds, 0.061% hits | AID 651647, 2012;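 active means GFP/RFP ratio change of at least 30% with cell ATP level not reduced by more than half and red fluorescence within 50% of control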; further: strong numbers were not always called active
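Read-out: GFP/RFP fluorescence ratio; Test system: RFP-PRO-GFP reporter HT1080 cells; Compound dosing: single-point 20 µM compound, 1% DMSO; Times: overnight compound exposure at 37 °C.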
Yeast UUG start = modulators of yeast start codon fidelity, primary screen, whole organism, S. cerevisiae, single point, plate reader. S. cerevisiae UUG-firefly luciferase reporter, luminescence/redox ratio. activity score, % at 18.7 µM. 350,000 compounds, 0.13% hits;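 active means replicate mean at a twofold rise or more, about +100% in these data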;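 further: firefly luciferase made from a UUG start codon reports start codon fidelity; reporter light over untreated wells divided by growth signal over untreated wells; some hits fall short of that in this replicate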
CSC inhib = cancer stem cell viability inhibitors, primary screen, luminescence; cancer stem cell-like cells viability; inhibition, % at 7.5 µM; 300,000 compounds, 1.1% hits;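 active means mean at 75% or more and at least half the replicates too; inconclusive means mean and replicates disagree; tested in HMLE shEcad cells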;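 further: 0% = median of negative and 100% = median of positive control wells; the first replicate is given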
PABP FP inh = PABP poly(A) RNA binding inhibitors, primary screen, biochemical, fluorescence polarization, uHTS; Polyadenylate-binding protein 1 (Homo sapiens), P11940; inhibition, % at 35 µM; 290,000 compounds, 1% hits;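 active means 50% or more with normal probe brightness, or confirmed in later tests; inconclusive means above 50% with abnormal brightness, or retests that disagree; inactive means below 50% or failed in later tests; about a fifth of its hits are not listed in these tables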;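 further: calls also rest on retests at 20 µM and on dose response follow-up; controls were probe without protein and protein plus probe with vehicle; some compounds called inactive have numbers as strong as hits; many hits fall short of the cut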
Target sequence (P11940 whole entry, looked up): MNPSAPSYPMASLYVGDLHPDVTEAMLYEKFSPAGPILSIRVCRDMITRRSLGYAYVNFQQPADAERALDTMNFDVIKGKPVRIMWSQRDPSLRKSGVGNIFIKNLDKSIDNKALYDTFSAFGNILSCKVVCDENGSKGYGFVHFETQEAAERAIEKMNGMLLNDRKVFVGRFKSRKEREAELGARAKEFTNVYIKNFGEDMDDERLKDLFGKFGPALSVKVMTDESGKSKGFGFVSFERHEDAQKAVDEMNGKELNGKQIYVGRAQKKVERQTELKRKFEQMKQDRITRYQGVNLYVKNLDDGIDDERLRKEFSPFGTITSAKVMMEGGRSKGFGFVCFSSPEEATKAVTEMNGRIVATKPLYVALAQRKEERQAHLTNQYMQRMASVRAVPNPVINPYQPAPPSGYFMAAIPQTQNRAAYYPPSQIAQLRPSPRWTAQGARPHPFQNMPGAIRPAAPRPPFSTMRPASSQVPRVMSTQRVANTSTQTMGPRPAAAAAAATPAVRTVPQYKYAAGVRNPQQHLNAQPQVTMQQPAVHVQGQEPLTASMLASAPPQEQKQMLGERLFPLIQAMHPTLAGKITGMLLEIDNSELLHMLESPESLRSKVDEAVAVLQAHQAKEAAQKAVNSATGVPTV
MT1-MMP act inh RFP = second read-out of MT1-MMP act inh, no call of its own (marks repeat the call); RFP signal change, %; measured here: RFP expression control read;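 0 = vehicle wells; hits needed this value within 50% of zero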
The depositor's hits bear a star; i = inactive; ? = inconclusive; . = no result given. This is a random part of the collection; any-hit rate near 2.9%.

Molecule	MT1-MMP act inh RFP	eIF4H inh	PABP FP inh	MT1-MMP act inh	Env fusion inh	Yeast UUG start	Rce1 inhib	CSC inhib
COc1cc(NC(=O)C2CCN(c3cnccn3)CC2)cc(OC)c1	4.1	-5.9	-11.8	1.2	-8.7	-10.7	i	.
C/C(=N\NC(=O)c1cccc(F)c1)c1cccc(NC(=O)c2ccc(F)cc2)c1	-0.2	-9.6	4.9	1.3	-27.6	.	i	2.0
COc1ccc(CCNC(=O)c2ccc(CNS(=O)(=O)c3cc(C)ccc3C)cc2)cc1OC	-9.7	-0.6	1.4	3.4	.	1.2	i	14.8
CN(C)S(=O)(=O)c1cccc(NC(=O)c2cccc(NS(=O)(=O)c3ccccc3)c2)c1	-22.5	-10.9	5.7	-7.4	25.8	3.5	i	7.3
O=C(CCc1nnc(CCC2CCCCC2)o1)NCCc1cccnc1	3.8	-9.0	-9.6	0.7	16.6	.	i	9.4
O=C(Cn1cc([N+](=O)[O-])ccc1=O)NCC(=O)Nc1ccc(F)c(F)c1F	2.8	.	.	-1.4	-1.4	-17.1	.	-15.4
C=CCSc1n[nH]c(-c2ccc(OCCCC)cc2)n1	-1.2	-11.6	-14.0	-0.4	.	.	i	68.2
NCCc1c(C(=O)O)[nH]c2ccc([N+](=O)[O-])cc12	3.6	7.1	16.4	6.9	-344.2	-2.9	i	-27.0
Cc1cccc2cc(C#N)c(SCC(=O)NCc3cccs3)nc12	1.9	9.0	-10.2	-2.3	6.6	.	i	-6.8
O=C(NCCNC(=O)c1cc(Cl)ccc1Cl)c1cnccn1	1.1	-12.6	-13.2	1.4	-5.2	-24.8	i	.
Cc1ccc(NC(=O)NC2(C(=O)NCc3ccco3)CCCCC2)cc1	-81.8	-2.7	10.3	-243.9	10.1	-22.4	i	-4.3
CC1(C)CC(=O)C=C(Nc2ccccc2C#N)C1	4.7	0.1	2.6	-3.8	12.7	-3.4	i	-25.0
O=C(NC1CCCCC1)N1CCN(S(=O)(=O)c2ccc(F)cc2)CC1	1.5	7.7	-3.9	4.7	0.0	1.9	i	-10.2
Cc1ccc(C(=O)N(C)c2nnc(-c3ccncc3)s2)cc1	-12.3	2.4	-20.1	-0.5	-0.3	.	i	4.7
Cc1cc(Nc2ccc(Br)cc2)nc(-c2ccccc2O)n1	-1.8	-13.0	4.8	-0.6	21.4	-1.8	i	68.1
CCOc1ccc(NS(=O)(=O)c2ccc3c(c2)CCN3C(=O)CCC(=O)O)cc1	1.3	-6.6	0.8	0.1	-117.4	12.5	i	7.6
Cc1cccc(S(=O)(=O)Nc2ccc3c(c2)OCCO3)c1	-4.2	-1.5	-9.2	1.1	-15.2	.	i	-7.6
O=C1c2cccc3cccc(c23)N1CN1CCN(c2ccccn2)CC1	1.9	-2.5	8.3	0.6	.	-16.2	i	-6.0
CCCCn1c(SCC(=O)NC(C)(C)C)nnc1-c1ccco1	1.4	-0.5	-1.0	4.1	.	-4.2	i	-2.9
O=C(CN(c1cccc([N+](=O)[O-])c1)S(=O)(=O)c1ccccc1)NCc1ccccc1	2.9	-7.2	4.9	6.5	50.2	9.4	i	-8.7
O=C1OC(c2ccc(Cl)cc2)=N/C1=C\C=C\c1ccco1	4.3	35.3	-8.4	-2.2	9.7	.	i	-14.6
O=C1N(Cc2cccc(Cl)c2)C[C@@H]2C[C@@H](c3ccco3)N3CCC[C@@]123	-1.0	-0.4	5.2	-11.8	4.8	0.7	i	-12.1
CC(=O)Nc1cc(C(=O)N2CCCC2)ccc1Sc1ccc(C)cc1	-4.7	-11.6	-9.1	2.3	-12.8	-6.3	i	.
COc1ccc(NC(=O)COC(=O)Cc2ccsc2)c(OC)c1	0.4	.	.	3.7	-34.2	-4.4	.	-9.2
COc1ccc(Oc2nc(OC)cc(OC)n2)cc1	-5.1	2.7	1.7	-3.4	12.7	.	i	1.1
Cc1ccccc1C(=O)NC1CCN(C(=O)N2CCOCC2)CC1	2.1	-3.2	10.5	3.3	.	-10.0	i	-4.3
O=C(NN=Cc1c(O)ccc2ccccc12)c1ccc2c(c1)OCO2	-3.1	.	.	-41.5	38.2	-11.5	.	10.4
Cc1ccc2c(c1)COc1c3ccc(C(=O)NC(C)C)cc3nn1-2	-11.0	4.8	-0.3	6.8	-205.6	2.2	i	2.7
COC(=O)c1[nH]c2ccc(F)cc2c1NS(=O)(=O)c1ccc(OC)cc1OC	0.7	1.3	-6.0	-3.6	12.0	-7.8	i	3.2
N#Cc1nc(COc2cccc(Cl)c2)oc1N1CCN(c2ccccc2)CC1	0.3	-4.5	1.1	4.5	.	-3.6	i	-0.6
CCCC1(c2ccccc2)NC(=O)N(CC(=O)Nc2cc(S(=O)(=O)N3CCOCC3)ccc2Cl)C1=O (stereo not given)	4.1	-1.6	-10.5	-0.6	1.5	.	i	-11.5
COC(=O)c1c(NC(=O)/C=C/c2ccco2)sc2c1CCC2	2.8	.	.	-7.5	-32.0	.	i	-6.0
COC(=O)c1ccc(C)c(NC(=O)CCSc2ccc(C)cc2)c1	-10.4	-14.0	-7.9	1.3	7.7	-0.3	i	1.5
Cc1ccc(C)n1NC(=O)c1cccc(Cl)c1	1.7	3.3	-1.5	-6.5	-17.2	-10.5	i	-11.0
COc1ccccc1CCn1c(N)cc(=O)[nH]c1=O	5.9	-10.2	-7.8	2.9	1.3	12.2	i	6.9
Cc1ccc(/C([O-])=C(/C(=S)NCc2ccccc2)[n+]2ccccc2)cc1[N+](=O)[O-]	6.4	7.1	-1.3	3.4	?	-0.8	i	-8.7
COCCCN1C(=O)C(CC(=O)NCC2CCCCC2)CC(C(=O)N(C(C)C)C(C)C)=C1C (stereo not given)	-0.9	.	.	0.0	2.7	-6.9	.	.
CC(C)(C)C(=O)CN1C(=O)NC2(CCCc3ccccc32)C1=O (stereo not given)	0.6	-4.6	-2.6	0.3	2.7	-8.8	i	-12.0
COc1ccc(CCNC(=O)C(=O)NCCC2CCCCN2S(=O)(=O)c2cccs2)cc1 (stereo not given)	-7.7	.	.	3.4	1.3	-7.9	i	-12.6
CC1(C(=O)NS(=O)(=O)c2ccccc2C(F)(F)F)CCN1C(=O)CCc1cccs1 (stereo not given)	-2.0	.	.	-2.6	16.4	2.0	.	.
Cc1cccc(-n2c(N)c(C(=O)NCCN3CCOCC3)c3nc4ccccc4nc32)c1	.	3.4	16.0	.	.	.	i	15.3
COc1ccc(NC(=O)COC(=O)c2ccc(OCc3ccccc3Cl)c(OC)c2)c(OC)c1	-2.1	-3.8	7.9	4.1	7.4	1.7	i	16.1
O=S(=O)(c1cccc2cccnc12)N1CCN(Cc2ccc3c(c2)OCO3)CC1	5.5	2.5	3.6	0.7	.	.	i	4.5
N#Cc1c2n(c3c(=O)n(Cc4ccccc4Cl)cnc13)CCCC2	-2.6	4.9	-1.5	-2.4	32.8	5.5	i	.
Cc1ccc(NC(=O)c2sc(Cl)nc2-c2ccccc2)cc1	-2.3	-1.2	0.2	-1.5	.	-23.7	i	-6.1

In another format: results already given
Every second line gives: MT1-MMP act inh RFP | eIF4H inh | PABP FP inh | MT1-MMP act inh | Env fusion inh | Yeast UUG start | Rce1 inhib | CSC inhib
Cc1ccc(/C([O-])=C(/C(=S)NCc2ccccc2)[n+]2ccccc2)cc1[N+](=O)[O-]
  6.4 | 7.1 | -1.3 | 3.4 | ? | -0.8 | i | -8.7
COCCCN1C(=O)C(CC(=O)NCC2CCCCC2)CC(C(=O)N(C(C)C)C(C)C)=C1C (stereo not given)
  -0.9 | . | . | 0.0 | 2.7 | -6.9 | . | .
CC(C)(C)C(=O)CN1C(=O)NC2(CCCc3ccccc32)C1=O (stereo not given)
  0.6 | -4.6 | -2.6 | 0.3 | 2.7 | -8.8 | i | -12.0
COc1ccc(CCNC(=O)C(=O)NCCC2CCCCN2S(=O)(=O)c2cccs2)cc1 (stereo not given)
  -7.7 | . | . | 3.4 | 1.3 | -7.9 | i | -12.6

(next part)
Molecule	MT1-MMP act inh RFP	eIF4H inh	PABP FP inh	MT1-MMP act inh	Env fusion inh	Yeast UUG start	Rce1 inhib	CSC inhib
COCCn1c(=NC(=O)CN2C(=O)CCC2=O)sc2cc(S(N)(=O)=O)ccc21	3.7	7.6	0.4	7.2	0.7	.	i	-10.7
O=C1c2cccc3cccc(c23)C(=O)N1Cc1ccccn1	2.3	.	.	0.1	11.0	-22.6	.	.
Cc1cc(OCC(=O)Nc2ccccc2N2CCOCC2)c(C(C)C)cc1Cl	-9.1	.	.	-2.3	.	-17.0	.	32.0
CCN(/C=N/c1sc2c(c1C#N)CCCCC2)CC	-2.9	-3.8	3.4	1.3	.	-2.1	i	-0.1
COc1ccc(Cl)cc1N(CC(=O)N/N=C/c1ccc(OCC(N)=O)cc1)S(C)(=O)=O	-1.3	-1.9	7.5	-3.3	-10.5	-1.5	i	1.7
CCOC(=O)Cn1ccc(NC(=O)COc2ccc(F)cc2)n1	1.6	3.5	0.6	1.9	2.3	-13.3	i	-10.7
CCCn1c(SCC(=O)Nc2nnc(CC)s2)nnc1-c1ccncc1	5.2	-9.4	-12.9	1.8	17.2	.	i	-9.5
CC(=O)Nc1ccc(S(=O)(=O)N2CCCC2C(=O)Nc2ccc(F)cc2)cc1 (stereo not given)	-1.9	-0.4	15.9	-3.7	-5.4	-17.4	i	.
Cc1ccc(S(=O)(=O)N2CCN(C(=O)CN3CCOCC3)C2C(C)C)cc1 (stereo not given)	4.8	-4.6	-6.1	-4.8	-42.5	1.7	i	-1.2
NC(=O)Cc1nc2scc(-c3ccccc3)c2c(=O)[nH]1	3.9	5.5	-5.9	-10.4	-120.7	-13.0	i	-19.8
CC(=O)OC1COC(n2c(O)c(N=NC(N)=S)c3ccccc32)C(OC(C)=O)C1OC(C)=O (stereo not given)	0.0	4.9	9.4	0.2	1.9	-10.3	i	-12.5
CCCCn1c(N)c(N(CC)C(=O)c2ccncc2)c(=O)[nH]c1=O	1.4	.	.	-1.9	.	0.6	.	4.1
CC(=O)Nc1ccc(Nc2ccccc2)cc1	7.3	-5.8	-5.8	18.3	-6.7	-18.2	i	-23.4
O=C(c1ccc(Br)cc1)N(c1ccccn1)C1CCCCC1	1.0	-10.2	-4.2	-1.4	12.9	.	i	6.0
CN(Cc1ccccc1)C(=C(Cl)Cl)/C(=C1/NCCN1C)[N+](=O)[O-]	7.1	10.8	8.6	-0.5	-115.8	.	i	0.7
CC(C)(C)c1ccc(CNC(=O)C2CCCN2C(=O)Nc2ccccc2)cc1 (stereo not given)	-2.4	2.7	4.4	-0.7	7.2	-27.7	i	-21.5
CCC(C(=O)OCC(=O)Nc1c(Cl)cccc1Cl)c1ccccc1 (stereo not given)	1.9	-10.4	-7.2	1.1	9.5	.	i	-16.5
Cc1ccc(NC(=O)C(c2ccccc2)c2ccccc2)nc1	-0.6	-1.9	-8.1	-3.1	6.4	-8.1	i	-5.6
CC(=O)Nc1cccc(OCC(O)Cn2cnc3ccccc32)c1 (stereo not given)	2.0	-4.2	-2.5	-4.2	1.3	-12.7	i	-10.1

High-throughput results: PubChem BioAssay, several laboratories
